TRPML1 ag: qHTS for Agonists of the Human Mucolipin Transient Receptor Potential 1 (TRPML1) | hit rate 0.12% among 410,000 | TRPML1-expressing cells, Ca2+ dye fluorescence, FDSS; host cell line not named in the record; reference of the full effect not given here | Mucolipin-1 (Homo sapiens), Q9GZU1 | activation, % (no concentration beside the values); in the data active = activation above about 50%; inconclusive = about 30% to 50%; inactive = below about 30%; note: 0% is about no effect; the text of the record puts the active cut at 80%
Target sequence (Q9GZU1 whole entry, looked up): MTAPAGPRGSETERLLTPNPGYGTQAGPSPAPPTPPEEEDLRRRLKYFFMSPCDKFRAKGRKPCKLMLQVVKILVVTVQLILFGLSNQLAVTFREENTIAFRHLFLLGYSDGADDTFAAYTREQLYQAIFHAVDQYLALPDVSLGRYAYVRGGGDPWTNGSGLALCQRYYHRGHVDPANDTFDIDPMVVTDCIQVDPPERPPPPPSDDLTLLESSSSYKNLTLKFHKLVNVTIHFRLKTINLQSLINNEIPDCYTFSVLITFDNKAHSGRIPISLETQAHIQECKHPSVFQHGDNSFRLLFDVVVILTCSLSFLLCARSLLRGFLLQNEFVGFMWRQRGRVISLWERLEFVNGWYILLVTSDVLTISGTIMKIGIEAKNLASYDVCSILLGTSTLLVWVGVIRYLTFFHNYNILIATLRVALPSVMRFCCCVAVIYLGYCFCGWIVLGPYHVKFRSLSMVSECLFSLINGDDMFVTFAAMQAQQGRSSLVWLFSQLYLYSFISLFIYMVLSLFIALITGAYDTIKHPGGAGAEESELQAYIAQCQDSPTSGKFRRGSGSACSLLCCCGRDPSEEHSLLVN
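Cells: TRPML1-DL, 1X Tet inducer, ~16 h at 37 degrees C/5% CO2. Dye: ABD Ca8 no-wash + quencher, 45-90 min RT. Read: 10 s baseline, compound add, 110 s agonist phase; 54-4 EC80 (4uM final), 110 s antagonist phase.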
gsp antag: qHTS for Antagonists of gsp, the Etiologic Mutation Responsible for Fibrous Dysplasia/McCune-Albright Syndrome: qHTS; hit rate 0.4% among 340,000; AID 624288, 2012; gsp-mutant cells, cAMP HTRF, 30 min; control for the full effect not named in the record; Potency, µM (doses to about 76.9 µM), for the others: at the top dose activity change, negative = inhibition, most hits filed as inhibitors; active = falling curve of any shape with a large fitted effect; inconclusive = falling curve, mostly with a smaller effect; inactive = flat or rising curve; cell line not stated here;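 note: intracellular cAMP measured with PDE inhibitor Ro 20-1724 present during compound exposure; potency is the fitted concentration of half-maximal effect; % is set by controls: 0 for no effect and ±100 for the full control effect; nearly all actives have a fitted effect of over 65% in size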
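Cells in G418 medium, seeded 16-24 h, 37C; buffer exchange to DPBS + 1 mM CaCl2, 0.5 mM MgCl2, 0.05% BSA; cpds in DMSO + […] (300 uM stock), 30 min 37C; HTRF cAMP detection.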
gsp agonist: qHTS for Agonist of gsp, the Etiologic Mutation Responsible for Fibrous Dysplasia/McCune-Albright Syndrome: qHTS; gsp mutant cells, cAMP HTRF, 30 min; control for the full effect not named in the record; hit rate 0.13% among 340,000; Potency, µM (titrated, usually from 76.9 µM), for the others: top-dose activation (cAMP increase), hits mostly activators; active = well fitted activation curve with a large enough effect; inconclusive = small, poorly fitted or top-dose-only effect, or another doubt; inactive = no such curve, though single readings can be large or run the other way; cell line not stated here;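 note: phosphodiesterase inhibitor Ro 20-1724 added with compounds to block cAMP breakdown; potency is the fitted concentration of half-maximal effect; nearly all actives have a fitted effect of over 60% in size; about a fifth of the inactives were tested at one dose only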
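Cells stably selected in G418 were plated at 2000/well, grown 16-24 hr, then given compounds in DMSO with the PDE inhibitor […] (300 uM solution added) for 30 min at 37C; cAMP was read by HTRF.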
Menin-MLL FL inh: qHTS Assay for Inhibitors Targeting the Menin-MLL Interaction in MLL Related Leukemias: Competition With Fluorescein Labeled MLL-derived Peptide; Fluorescence polarization, fluorescein-MLL peptide displacement from menin; FP activity change, % at 61.4 µM; 290,000 tested, under 10 active; AID 1766, 2009; inconclusive = falling polarisation curve, or a change in total fluorescence; inactive = total fluorescence flat and polarisation flat or rising; no compound was filed as active; the % refers to the polarisation; negative = inhibition;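 note: % of control where 0% means no effect; inhibitors lower the polarisation; unlabelled MLL peptide was the positive control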
ClpP mod: qHTS Assay for Activators of ClpP; ATP-dependent Clp protease proteolytic subunit (Bacillus subtilis (strain 168)), P80244; purified B. subtilis ClpP, FRET peptide cleavage, 20 min; Potency, µM (doses to about 57.5 µM), without a hit: at the highest dose activity change, negative = active; hit rate 1.9% among 340,000; AID 651965, 2013; active = well fitted falling curve with a large enough effect; inconclusive = small, poorly fitted or top-dose-only effect; inactive = no such curve, though single readings can be large or run the other way; note: potency is the fitted concentration of half-maximal effect; the source files actives as falling curves though it sought activators and does not explain the sign; nearly all actives have a fitted effect of over 65% in size; many hits overshoot -100%
Target sequence (P80244 whole entry, looked up): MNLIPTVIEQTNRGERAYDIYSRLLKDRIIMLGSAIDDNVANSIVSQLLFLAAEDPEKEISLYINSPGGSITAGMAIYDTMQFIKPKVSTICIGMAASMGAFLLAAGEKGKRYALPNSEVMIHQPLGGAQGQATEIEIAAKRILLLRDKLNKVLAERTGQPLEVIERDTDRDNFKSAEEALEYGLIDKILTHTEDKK
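ClpP 10 microg/mL final, pH 8 Tris/KCl buffer with BSA, glycerol, Tween-20; compound pinned in; FRET-FV substrate; RT 20 min; Ex320/Em430; ΔFRET vs ADEP 5.8 microM, DMSO, no enzyme.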
TRPML1 inh: qHTS for Inhibitors of the Human Mucolipin Transient Receptor Potential 1 (TRPML1) | Mucolipin-1 (Homo sapiens), Q9GZU1 | TRPML1-inducible cells, Ca2+ dye fluorescence, FDSS; active compounds read low; inhibition of EC80 agonist-evoked calcium signal | activity change, negative = inhibition, % (no concentration beside the values) | hit rate 0.02% among 390,000 | AID 624415, 2012; in the data active means activity change below about -50%; inconclusive means about -30% to -50%; inactive means above about -30%;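 note: stimulus is agonist 54-4 at its EC80 concentration; % is set by controls: 0 for no effect and ±100 for the full control effect; compound concentration not given in the record; the text of the record puts the active cut at -80%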
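Tet-induced TRPML1-DL cells loaded with Ca8 no-wash calcium dye were read kinetically on FDSS. Compound addition was followed by EC80 agonist 54-4 (4 uM final); inhibition was read over 110 s.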
An asterisk follows results filed as active; ? = inconclusive; · = not tested or not shown; [ ] = remark or other dose.

mol,TRPML1 ag,gsp antag,gsp agonist,Menin-MLL FL inh,ClpP mod,TRPML1 inh
CCCNc1nc2nc3ccccn3c(=O)c2cc1C(=O)NCCN1CCOCC1,0.1,7.5%,10.7%,-0.6,·,7.6
CCC(=O)Nc1ccc(-c2csc(NNC(C)=O)n2)cc1,2.1,0.9%,-4.5%[15.4 µM],-1.4,·,-7.4
CO/N=C(/CS(=O)(=O)c1ccc(C)cc1)c1ccc(OC)cc1,0.7,-14.0%,4.4%,2.9,-0.9%,-1.4
COc1ccc(Cc2nnc(SCC(=O)N(c3ccccc3)C(C)C)n(N)c2=O)cc1,1.3,-17.5%,-3.8%,·,-2.0%,-8.4
COC(=O)c1c(NC(=O)CSc2nnc(CNc3ccc(Cl)cc3)o2)sc(C)c1C,1.0,?,12.0%,2.0,-0.6%,-5.9
CCCNC(=O)C1(C)CCN(Cc2ccc(C(=O)OCC)cc2)C1 (stereo unspecified),0.3,·,·,·,0.9%,28.0
O=C(Nc1ccc(Cl)c(C(=O)N2CCOCC2)c1)c1ccccc1,-0.8,17.8%,-1.5%[15.4 µM],3.8,0.8%,3.2
Cc1ccc2nc(NC(=O)CN3C(=O)NC4(CCCCC4)C3=O)sc2c1,-0.3,-3.6%,?,·,-1.0%,15.9
COc1ccc2nc(Nc3sc4c(c3C(N)=O)CCCC4)sc2c1,0.5,2.5%,-4.1%,?,-4.3%,36.4
COc1cc(C(=O)N/C(=C\c2cn(C)c3ccccc23)C(=O)NCCN2CCOCC2)cc(OC)c1OC,-0.5,-5.1%,?,·,-2.5%,-10.1
CCOC(=O)C1CCCN(C(=O)C2COc3ccccc3O2)C1 (stereo unspecified),3.3,-2.2%,?,·,-4.6%,18.6
O=C(NCc1ccco1)c1cccc2c1C(=O)c1ccc(N3CCC(Cc4ccccc4)CC3)cc1S2(=O)=O,7.0,-1.5%,22.7%,·,0.6%,13.5
CCOC(=O)C1=NN(c2ccc(F)cc2)C2=NC(C)=C(C(=O)OC)C(c3cccs3)N12 (stereo unspecified),0.4,8.3%,-2.9%,·,-2.4%,-8.4
Cc1cccc(OCC(=O)OC(C)C(=O)Nc2ccc(Cl)cn2)c1 (stereo unspecified),3.1,10.7%,1.8%[15.4 µM],·,·,4.3
COc1ccc(S(=O)(=O)N(C)C)cc1NC(=O)CSc1nnc(-c2cccnc2)o1,-0.6,6.2%,?,3.1,·,-10.1
O=C(NCCCNC(=O)c1ccccn1)c1ccc(Br)cc1,0.6,-19.4%,-31.5%,-6.2,0.8%,25.4
CCc1noc(C)c1C(=O)N1CCCC(N2CCN(c3ccccc3F)CC2)C1 (stereo unspecified),0.0,9.1%,36.0%,·,-3.3%,-10.1
COc1cc(C(=O)NNC(=O)c2ccccc2Br)ccc1OCC(=O)N1CCOCC1,0.7,10.5%,-3.7%,·,0.4%,1.9
CCOc1ccc(NC(=O)c2nnn(-c3ccc(F)c(Cl)c3)c2C)cc1,-0.5,·,·,·,-7.1%,-7.8
COc1ccc(Cl)cc1NS(=O)(=O)c1ccc(OC)c(OC)c1,-0.1,-0.2%,2.1%,1.1,-2.8%,-9.7
Cc1cccc(C(=O)Nc2ccccc2SCC2CSc3nc4ccccc4c(=O)n32)c1 (stereo unspecified),2.1,?,?,1.3,-1.1%,13.3
Cc1ccc(C(=O)N/N=C\c2ccncc2)s1,-0.6,7.9%,-10.1%,·,-0.9%,-12.5
COc1ccc2nc(N3C(=O)CC(Cc4ccc(Cl)cc4)C3=O)sc2c1 (stereo unspecified),-0.8,-6.6%,-9.3%,2.2,2.5%,11.0
COc1cc(OC)cc(C(=O)Nc2ccc(S(=O)(=O)Nc3cnc4ccccc4n3)cc2)c1,-0.1,-24.6%,-3.0%[15.4 µM],·,?,-5.4
COc1ccc(/C=C2\SC(=O)N(CCNC(=O)Cc3coc4cc(OC)ccc34)C2=O)cc1,-0.2,-25.2%,?,10.7,13.4%,-12.5
CC(c1ccccc1)n1cnc2ccccc2c1=O (stereo unspecified),0.5,5.6%,-16.6%,1.1,·,12.9
Cc1ccc(C)c(Sc2ccc(NC(=O)CCl)cc2)c1,2.2,-7.5%,?,4.2,-0.8%,-7.3
Cc1c(C(=O)NCC2CCCO2)oc2ccc(S(=O)(=O)N3CC(C)CC(C)C3)cc12 (stereo unspecified),0.0,-7.8%,-30.3%[inhibitor],3.7,1.3%,5.1
O=C(Nc1ccccc1C(=O)OCc1cc(=O)n2nc(C3CC3)sc2n1)c1ccc(Cl)cc1,-0.6,·,·,·,0.1%,-12.4
COc1ccc(/C(C)=N/NC(=O)c2ccncc2)cc1[N+](=O)[O-],0.3,-0.1%,3.8%[15.4 µM],-1.2,1.1%,17.1
CCOc1ccccc1-n1c(CN2CCN(C(=O)c3ccco3)CC2)nc2ccccc2c1=O,0.8,-6.2%,-18.0%,-0.5,0.8%,17.6
COc1cccc(C2C(C(N)=O)=C(C)Nc3nc(-c4ccccc4Cl)nn32)c1 (stereo unspecified),1.3,-2.4%,-24.8%,-0.8,-2.0%,-6.5
CSc1ccc(C2C(C(=O)c3ccco3)=C(O)C(=O)N2c2nnc(SC)s2)cc1 (stereo unspecified),7.6,-4.8%,?,·,-0.8%,9.8
Cc1ccccc1C(=O)Nc1cccc(-c2cn3ccccc3n2)c1,-0.3,-26.0%,-18.6%[15.4 µM],0.4,·,-3.3
Cc1ccc(S(=O)(=O)Nc2ccc(NC(=O)c3c(F)c(F)c(F)c(F)c3F)cc2)cc1,12.6,-13.5%,-60.1%[inhibitor],-1.6,-0.8%,-17.1
COc1cc(CN(CCc2c(C)[nH]c3ccc(C)cc23)C(=S)NC(C)(C)C)cc(OC)c1OC,-1.2,-4.7%,-31.4%,1.2,-7.3%,-9.3
Cc1ccccc1-c1nc2ccccc2[nH]1,-1.3,-1.8%,27.0%,7.5,?,30.6
Cn1c(=O)oc2cc(S(=O)(=O)N3CCCC3)ccc21,0.0,-0.6%,-3.5%,-2.4,1.5%,0.7
CCOc1ccc(NC(=O)CC2C(=O)N(c3ccc(C)cc3)C(=O)N2C2CCCCC2)cc1 (stereo unspecified),0.4,·,·,·,-0.8%,8.0
CC(CCc1ccccc1)NC(=O)CN1CCN(c2ccc(O)cc2)CC1 (stereo unspecified),-1.0,0.4%,5.8%[15.4 µM],3.8,0.8%,-1.3
Cc1ccc(S(=O)(=O)N(C)CC(=O)NCC(=O)Nc2ccc(F)c(F)c2F)cc1,-0.5,-2.4%,2.3%[15.4 µM],·,-0.9%,12.5
CCCCNC(=O)Cn1cnc2ccc(S(=O)(=O)N3CCC(C)CC3)cc2c1=O,1.3,-12.1%,-1.1%[15.4 µM],2.3,·,4.9
CCN(CC)CCNC(=O)c1ccc(NC(=O)C2CCN(c3ncnc4sc(C)c(C)c34)CC2)cc1,0.5,3.4%,?,·,-3.5%,0.0
Cc1c(S(=O)(=O)N2CCOCC2)c(=O)n(C)c(=O)n1C,0.1,1.6%,27.8%,4.4,-1.9%,10.2
COc1ccccc1N1CCN(C(=O)c2coc(=O)c(Br)c2)CC1,-0.4,12.7%,-17.4%,1.7,·,-13.4
O=C(Nc1ccc(Cl)cc1)c1ccc2nsnc2c1,-0.4,-1.9%,-20.1%[15.4 µM],4.5,·,-18.9
CC(=O)Nc1cccc(-n2nnc(SCC(=O)c3ccccc3)n2)c1,0.3,-5.2%,12.0%,6.0,-3.8%,-10.6
Cc1nn(C)cc1NC(=O)CC12CC3CC(CC(C3)C1)C2,0.0,6.4%,-27.9%,3.0,6.4%,-5.1
Cc1nn(C)cc1CNC(=O)Nc1cccc(Cl)c1,-0.1,-6.8%,-11.5%,-3.8,0.5%,-4.0
COc1cc(CNC(=O)c2ccc3nc(CCc4ccccc4)oc3c2)cc(OC)c1OC,0.4,·,·,·,-28.7%,-23.0

The listing continues.
mol,TRPML1 ag,gsp antag,gsp agonist,Menin-MLL FL inh,ClpP mod,TRPML1 inh
CCOc1ccccc1Nc1ccc(C(=O)O)cc1N,0.4,-28.3%,-2.7%,-1.6,·,15.2
Cc1cc(C)n(-c2ccc(C(=O)OCC(=O)Nc3ccc(S(=O)(=O)N4CCOCC4)cc3)cc2)n1,-0.4,4.4%,?,2.1,-2.0%,-3.1
CSCCC(NC(=O)c1ccccc1)C(=O)NCc1ccc(S(N)(=O)=O)cc1 (stereo unspecified),0.4,2.3%,-2.0%,4.8,-0.7%,-3.7
COc1cccc(CNc2nccn(-c3ccc(OC)c(OC)c3)c2=O)c1,1.0,·,·,·,-5.1%,8.6
O=C(c1ccccc1Br)N1CCc2c([nH]c3ccccc23)C1,·,-8.0%,-42.0%[inhibitor],6.1,0.2%,·
O=C1C(Nc2ccccc2)=C(NS(=O)(=O)c2ccccc2)C(=O)c2ccccc21,1.2,-8.8%,-32.5%,·,3.8%,-1.2
COc1ccc([C@H]2C[C@@H](n3cc(C4CC4)nn3)[C@H](O)CN2C(=O)c2cccs2)cc1,-0.7,·,-35.5%[inhibitor],·,0.7%,31.6
O=C(O)c1cc(=O)[nH]c2ccc(S(=O)(=O)Nc3ccc(F)cc3)cc12,0.8,11.9%,-28.8%,-5.1,-1.0%,1.9
O=C(NCCS(=O)(=O)N1CCN(C(=O)c2ccco2)CC1)c1ccccc1,-0.9,·,-3.0%,·,1.0%,12.9
COc1cccc2sc(N(CCCN(C)C)C(=O)CCS(=O)(=O)c3ccccc3)nc12,-0.5,7.3%,19.3%,0.5,-7.3%,-10.5
CN(C)CCN=Cc1c(O)n(-c2ccc(S(=O)(=O)N3CCOCC3)cc2)c(=O)c2ccccc12,-0.6,9.3%,-7.4%[15.4 µM],·,·,-16.0
COc1cccc(NC(=O)CN2C(=O)C3(SCC(=O)N3c3cc(C)cc(C)c3)c3ccccc32)c1 (stereo unspecified),2.7,·,·,·,-1.4%,4.7
NC(=O)c1ccc(-n2nnnc2SCC(=O)Nc2ccccc2)cc1,-1.0,-1.0%,-32.9%[inhibitor],-0.2,1.5%,-8.6
CC1CCCC(NC(=O)CSc2nnc(C(F)(F)F)n2C)C1C (stereo unspecified),0.2,-0.2%,-41.6%[inhibitor],·,1.6%,7.9
CC(=O)NC(Cc1ccccc1)C(=O)OCC(=O)c1ccc(F)cc1 (stereo unspecified),-0.4,4.4%,-5.7%,1.7,-0.3%,5.1

Screening data (PubChem BioAssay)
